Compound activity deposited in PubChem BioAssay by National Center for Advancing Translational Sciences (NCATS).
Rango dissoc inh: prevents RanGTP from dissociating the Rango-importin beta complex; Biochemical FRET Rango-importin beta, RanGTP-induced dissociation; 340,000 compounds, 0.071% hits; Potency, µM (top dose mostly 46.1 µM), inactives show top-dose activity change, negative = inhibition; active means falling FRET ratio curve, often poorly fitted, with flat reads before Ran was added; inconclusive means other falling curves, or compound fluorescence or quenching; inactive means flat or rising ratio curve;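 also: potency is read from the fitted curve at half-maximal effect; % of control where 0% means no effect; nearly all actives have a fitted effect of over 45% in size; -100% = wells without RanGTP and RCC1; the record marks most hits as doubtful in a second field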
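Two FRET readings bracket the reaction: one 5 min after compound meets Rango–importin beta, another 45 min after RanGTP-RCC1 (0.6 uM Ran, 0.2 uM RCC1, 2 mM GTP) is added. Only the second defines inhibition.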
GLA inh pH 4.5: blocks human alpha-galactosidase A at pH 4.5 | 230,000 tested, under 10 active | purified enzyme, 4-MU-alpha-Gal fluorescence, pH 4.5 | P06280 | activity change, negative = inhibition, % at 105 µM; inconclusive = small, poorly fitted or top-dose-only inhibition, or a rising curve; inactive = flat fitted curve, though single readings scatter; no compound was filed as active;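 also: 0% = full activity with enzyme and -100% = basal without enzyme; dose as in the result columns while the protocol names 77 µM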
Rango complex inh: Rango-importin beta binding inhibition; 340,000 compounds, 0.031% hits; Potency, µM (titrated, usually from 92.2 µM), inactives show top-dose inhibition of complex formation; Rango CFP/YFP FRET sensor + importin beta, 45 min; active = rising FRET ratio curve, often small or poorly fitted; inconclusive = mostly compound fluorescence or quenching in the first reads; inactive = flat curves in all reads;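 also: potency is read from the fitted curve at half-maximal effect; 0% = DMSO wells and 100% = buffer wells lacking importin beta; nearly all actives have a fitted effect of over 15% in size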
Target sequence (Q14974 whole entry, looked up): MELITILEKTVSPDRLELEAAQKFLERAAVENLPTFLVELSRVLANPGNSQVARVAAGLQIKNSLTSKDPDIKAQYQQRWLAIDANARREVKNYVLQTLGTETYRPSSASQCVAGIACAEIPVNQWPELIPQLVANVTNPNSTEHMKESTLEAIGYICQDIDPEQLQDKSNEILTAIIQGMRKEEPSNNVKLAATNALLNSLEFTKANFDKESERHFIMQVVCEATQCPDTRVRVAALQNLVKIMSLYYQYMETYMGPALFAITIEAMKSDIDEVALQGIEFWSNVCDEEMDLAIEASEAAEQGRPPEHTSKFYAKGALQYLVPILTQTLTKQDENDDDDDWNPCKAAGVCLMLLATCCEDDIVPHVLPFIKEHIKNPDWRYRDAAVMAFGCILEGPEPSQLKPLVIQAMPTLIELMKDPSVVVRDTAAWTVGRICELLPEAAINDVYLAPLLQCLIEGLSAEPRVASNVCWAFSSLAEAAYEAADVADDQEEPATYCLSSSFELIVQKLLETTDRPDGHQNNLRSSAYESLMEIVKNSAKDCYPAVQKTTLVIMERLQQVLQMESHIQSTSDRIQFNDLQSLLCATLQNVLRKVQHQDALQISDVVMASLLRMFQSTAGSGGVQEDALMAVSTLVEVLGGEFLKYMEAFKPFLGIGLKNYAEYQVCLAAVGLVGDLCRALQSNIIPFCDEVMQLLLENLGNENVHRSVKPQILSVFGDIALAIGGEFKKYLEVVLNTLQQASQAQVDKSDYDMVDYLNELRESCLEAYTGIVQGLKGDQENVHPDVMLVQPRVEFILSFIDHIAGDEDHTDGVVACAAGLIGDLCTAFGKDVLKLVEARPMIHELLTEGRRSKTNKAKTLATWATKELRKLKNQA
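Inhibition scored from the CFP 486 nm/YFP 530 nm FRET ratio 45 min after adding 0.125 microM importin beta to 50 nM Rango biosensor preincubated 5 min with compound (room temperature, PBS with DTT, Tween-20, BSA). No-importin wells as positive control.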
miR-21 reporter: raises the signal of a miR-21 reporter | 340,000 tested, under 10 active | HeLa miR-21 FLuc reporter, luciferase, 48 h | Potency, µM (doses to about 38.3 µM), without a hit: at the top dose reporter change, positive = more light; active = well fitted rising curve with a large enough effect; inconclusive = small, poorly fitted or top-dose-only effect; inactive = no such curve, though single readings can be large or run the other way;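 also: % of control where 0% means no effect; miR-21 action dims this reporter so a rising signal means less miR-21 action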
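Compounds were titrated across several concentrations (up to approximately 40 uM) and incubated 48 hours with HeLa miR-21-FLuc reporter cells (miR-21 target sequence downstream of FLuc, endogenous miR-21). Readout was firefly luciferase luminescence after lytic detection reagent.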
Active calls of the source: *; ? = inconclusive; . = no result given; & = joins results of further samples.

Value order: Rango dissoc inh	GLA inh pH 4.5	Rango complex inh	miR-21 reporter
Cn1cccc1-c1cc(C(=O)N/N=C/c2cccc(O)c2)[nH]n1
    -5%	-4	-0.2%	-22%
O=c1[nH][nH]c(C(F)(F)F)c1C=NCc1cccc(Cl)c1
    6%	4	-0.3%	-2%
CN(Cc1ccccc1)C(=O)CN1C(=O)c2ccc([N+](=O)[O-])cc2C1=O
    9%	.	-1.3%	2%
CC(NC(=O)C(Cc1ccccc1)=NO)c1ccccc1 (stereo unspecified)
    18%	.	1.9%	.
O=C1CN(C(=O)COc2ccccc2)c2ccccc2N1
    -15%	.	-3.8%	-7%
FC(F)(F)c1cc(-c2ccccc2)nc(N2CCCCCC2)n1
    1%	3	-2.4%	-7%
Cc1c(C)c(C)c(S(=O)(=O)Nc2ccc3[nH]c(=O)[nH]c3c2)c(C)c1C
    0%	.	-0.4%	4%
Cc1nc2c(ncn2-c2ccccc2)c(=O)n1NC(=O)CN1CCCC1
    -4%	2	-0.1%	-17%
Cc1cc(C)n(Cc2ccc(C(=O)Nc3cccc(Br)c3)o2)n1
    34%	-5	5.7%	-12%
Cc1cccc(Cc2nnc(CCC(=O)N3CCCC(CN4CCOCC4)C3)o2)c1 (stereo unspecified)
    0%	8	6.5%	-3%
COC(=O)c1c(NC(=O)c2cccs2)sc2c1CCCC2
    -5%	-1	?	-6%
O=C(Nc1cccc(-c2csc(Nc3cccc(C(F)(F)F)c3)n2)c1)c1ccccc1
    -19%	-14	0.7%	29%
O=C(C1CCN(S(=O)(=O)c2cccs2)CC1)N1CCN(c2ccccc2)CC1
    5%	3	-0.7%	-8%
O=C(C1=C(O)C(=O)N(CCN2CCOCC2)C1c1ccccn1)c1cccs1 (stereo unspecified)
    ?	-8	?	-17%
O=C(Nc1nncs1)c1c(F)c(F)c(F)c(F)c1F
    10%	-1	3.6%	-9%
CC(C)Oc1ccc(CCc2nnc(SCC(=O)O)n2-c2ccccc2)cc1
    -1%	0	1.3%	-4%
CCCN(CCC)S(=O)(=O)c1ccc(NS(=O)(=O)c2ccc(F)cc2)cc1
    1%	5	0.0%	-3%
CC(=O)c1cccc(Nc2nc(-c3cccc([N+](=O)[O-])c3)cs2)c1
    -4%	-6	5.3%	-30%
CC(C)N(CCCNC(=O)c1ccc(CS(=O)(=O)c2c(Cl)cccc2Cl)o1)Cc1ccccc1
    2%	.	-1.0%	-2%
CC(C)(C)c1nc(NCC2CCCO2)c2nnn(Cc3ccccc3)c2n1 (stereo unspecified)
    -2%	4	0.1%	-2%

Three entries picked at random from those above:
Value order: Rango dissoc inh	GLA inh pH 4.5	Rango complex inh	miR-21 reporter
CN(Cc1ccccc1)C(=O)CN1C(=O)c2ccc([N+](=O)[O-])cc2C1=O
    9%	.	-1.3%	2%
CC(NC(=O)C(Cc1ccccc1)=NO)c1ccccc1 (stereo unspecified)
    18%	.	1.9%	.
O=C(C1=C(O)C(=O)N(CCN2CCOCC2)C1c1ccccn1)c1cccs1 (stereo unspecified)
    ?	-8	?	-17%

New compounds follow:
Value order: Rango dissoc inh	GLA inh pH 4.5	Rango complex inh	miR-21 reporter
CC(Oc1ccc(Cl)cc1)C(=O)NNC(=S)NC(=O)c1ccco1 (stereo unspecified)
    14%	-6	-0.5%	25%
O=S(=O)(c1ccc(F)cc1)N1CCC2(CC1)OCCO2
    1%	-3	-0.3%	-3%
C/C(=N\NC(=O)c1cccc(C)c1)c1ccc(N2CCOCC2)cc1
    -15%	-21	4.1%	-30%
CC(C)[C@H](NC(=O)c1ccco1)C(=O)OCC(=O)N(C)c1ccccc1
    -3%	3	?	-1%
COc1ccc(C(=O)N2CCCC(c3nc(-c4cccs4)no3)C2)cc1 (stereo unspecified)
    2%	-6	0.1%	-1%
O=C(Nc1ccc(F)cc1)C(Cc1ccccc1)n1cccc1 (stereo unspecified)
    3%	-12	0.6%	20%
COc1ccccc1NC=C1C(=O)OC(C)(C)OC1=O
    5%	5	4.7%	-16%
COc1ccc(C(=O)NC(=S)NCC2CCCO2)cc1 (stereo unspecified)
    -3%	-1	0.1%	-55%
COc1ccccc1CNc1ccc(Br)cn1
    -6%	.	9.0%	-44%
CSc1ccc(CN2CCC(Oc3ccc(C(=O)N4CCCC4)cc3)CC2)cc1
    -6%	.	-3.2%	12%
c1ccc(CSc2nc3ccccc3[nH]2)cc1
    -14%	-13	0.5%	-33%
CCOC(=O)C(C)Sc1ncc(OC)c(Sc2ccc(Cl)cc2)n1 (stereo unspecified)
    0%	-3	-0.2%	-8%
Cc1ccccc1P(=O)(CO)c1ccccc1C
    -17%	-9	0.8%	-1%
CC(C)Oc1ccc(C(=O)CCN2CCCCC2)cc1
    -13%	-5	0.3%	18%
O=C(Nc1cc([N+](=O)[O-])ccc1O)c1ccc2c(c1)C(=O)N(Cc1ccco1)C2=O
    1%	.	0.3%	-13%
Cc1ccc(-c2nn(C)c(=O)c3ccccc23)cc1CNS(C)(=O)=O
    -11%	2	-2.6%	0%
CCOC(=O)N1CCC(NC(=O)C(NS(=O)(=O)c2cccc3nsnc23)c2ccccc2)CC1 (stereo unspecified)
    24%	-23	0.2%	-1%
CCN(CC)S(=O)(=O)c1cccc(-c2nnc(SCC(=O)c3cc(C)n(C4CC4)c3C)o2)c1
    -6%	6	-4.2%	-2%
CC(=O)Nc1c([N+](=O)[O-])cc2[nH]c(=O)[nH]c2c1[N+](=O)[O-]
    -12%	-5	11%	0%
Cc1ccc(N2CC(C(=O)Nc3ccncc3)CC2=O)cc1 (stereo unspecified)
    -23%	-3	-5.9%	0%

Value order: Rango dissoc inh	GLA inh pH 4.5	Rango complex inh	miR-21 reporter
Cc1cc(=O)oc2c1c(C)nn2-c1cccc(Cl)c1
    5%	-10	2.4%	-3%
Cc1ccc(S(=O)(=O)N2CCN(C(=O)COC(=O)c3cncc(Br)c3)CC2)c(C)c1
    -3%	.	-0.9%	.
Cc1nc(NC(=O)C2CCCCC2C(=O)O)sc1C (stereo unspecified)
    -9%	.	1.2%	-11%
Cc1ccc(-c2cc(C(=O)Nc3ccc(S(=O)(=O)Nc4onc(C)c4C)cc3)c3ccccc3n2)cc1
    -16%	-1	2.6%	-6%
CN(Cc1nc2ccccc2c(=O)[nH]1)c1ccccc1
    ?	-11	?	-13%
O=C(CCn1c(=O)c2cccn2c2cccnc21)N1CCN(c2cccc(Cl)c2)CC1
    20%	.	-2.6%	12%&14%
Cn1ccnc1-c1nnn(-c2ccc(Cl)c(Cl)c2)n1
    -1%	.	-0.1%	.
O=C(NCCCO)c1ccc2[nH]c3c(c2c1)CCCC3
    -12%	3	1.9%	-36%
CC(C)c1ccc(/C=c2\sc3n(c2=O)C(N)=C(C#N)C(c2ccc(C(C)C)cc2)C=3C(N)=O)cc1 (stereo unspecified)
    -24%	.	?	.
C[C@H](NS(=O)(=O)c1ccc(Cl)c(Cl)c1)C(=O)OCc1cc(=O)n2cc(Br)ccc2n1
    2%	-3	-5.7%	2%
CC(Sc1ccsc1[N+](=O)[O-])C(=O)NCc1ccccc1 (stereo unspecified)
    .	-13	.	9%
Cc1ccc(/C=C2/SC(=S)N(CCC(=O)N3CCN(c4ccccc4)CC3)C2=O)cc1
    .	1	.	0%
COCCNC(=S)N(CCc1c(C)[nH]c2ccc(C)cc12)Cc1cc(OC)c(OC)c(OC)c1
    2%	1	2.1%	11%
Cc1nc2ccc(S(=O)(=O)NC(C(=O)NC3CCCC3)C(C)C)cc2s1 (stereo unspecified)
    3%	1	-2.8%	-1%
CC(C)c1cc(NC(=O)CSc2nnc(-c3ccccc3F)n2C)on1
    -5%	3	-0.9%	0%
COc1ccccc1Nc1nc2nonc2nc1N1CCCCC1C (stereo unspecified)
    0%	-7	-1.8%	-4%
O=C(CSc1n[nH]c(-c2ccccc2)n1)Nc1ncc(Br)cc1Br
    2%	-5	-3.1%	-10%
CC(C)OC(=O)NCCOC(=O)Nc1cccc(Cl)c1
    -10%	-1	-0.7%	-15%
O=C(NC1=NCCS1)[C@H](Cc1ccccc1)N1C(=O)c2ccccc2C1=O
    24%	-23	0.3%	0%
CCc1ccc(OCC(=O)NN2Cc3ccccc3C2=N)cc1
    43%	5	-0.7%	-2%

Value order: Rango dissoc inh	GLA inh pH 4.5	Rango complex inh	miR-21 reporter
CCOC(=O)N1CCN(C(=O)COC(=O)CNC(=O)c2ccc(Cl)cc2Cl)CC1
    -17%	.	3.3%	.
O=C1CN(C(=O)COC(=O)/C=C/c2ccc(S(=O)(=O)N3CCOCC3)cc2)c2ccccc2N1
    11%	-3	-3.4%	0%
CCOc1cc(NCCN2CCOCC2)c([N+](=O)[O-])cc1OCC
    -13%	.	-1.4%	-6%
O=S(=O)([N-]c1nc2ccccc2nc1-[n+]1ccc(CCCc2ccccc2)cc1)c1cccs1
    ?	-15	?	15%
COc1cccc(COC(=O)c2cc(S(=O)(=O)N3CCOCC3)ccc2Cl)c1OC
    0%	.	-1.1%	.
O=C(O)CC1=C(O)C(=O)N(c2ccccc2)C1c1ccc(Br)cc1 (stereo unspecified)
    -4%	6	4.4%	-6%
Cc1cc2nc(NC3=NCN(Cc4ccc5c(c4)OCO5)CN3)nc(C)c2cc1C
    .	-2	.	-1%
Cc1ccc2cc(CN(Cc3ccco3)C(=O)c3ccco3)c3nnnn3c2c1
    -2%	.	-1.2%	9%
CCn1ccnc1CN(C)C(=O)C1CCC(=O)N(CCc2cccc(F)c2)C1 (stereo unspecified)
    1%	.	-1.3%	1%
Cc1cc(=O)oc2cc(OCc3nnc(-c4ccccc4Br)o3)ccc12
    8%	14	0.0%	-15%
O=C(NCC1CCCO1)c1sc(=S)n2c1[nH]c(=O)c1ccc(C(=O)N3CCCCC3)cc12 (stereo unspecified)
    -10%	-30	9.7%	-46%
O=C(NC(=S)Nc1cccc(Cl)c1N1CCOCC1)c1cccs1
    0%	3	-2.8%	-3%
Cc1cc(C)c2c(N)c(C(=O)Nc3ccccc3Cl)sc2n1
    -22%	.	?	.
c1ccc(CNC2=NCCCC2)cc1
    12%	1	4.1%	0%
C=CCc1cccc2cc(C(=O)N3CCN(C(=O)OCC)CC3)c(=O)oc12
    4%	-5	-0.6%	-9%
O=C(Cc1cccc(C(F)(F)F)c1)Nc1ccc(S(=O)(=O)N2CCCC2)cc1
    14%	.	?	.
COn1c(=O)c(-c2ccccc2)[n+]([O-])c2ccccc21
    -21%	.	6.9%	-2%
Cn1ccnc1Sc1cc(Cl)ccc1[N+](=O)[O-]
    -3%	-17	-1.5%	-4%
Cc1nc(SCC(=O)c2ccc(F)cc2)c([N+](=O)[O-])[nH]1
    1%	-3	0.4%	-16%
Cc1nn(C)c(C)c1C1C(C#N)=C(N)OC2=C1C(=O)CC(C)(C)C2 (stereo unspecified)
    1%	5	2.8%	-3%

Value order: Rango dissoc inh	GLA inh pH 4.5	Rango complex inh	miR-21 reporter
O=C(CCC(=O)OCc1ccc(Cl)cc1)Nc1cccc([N+](=O)[O-])c1
    0%	-4	7.1%	0%
O=c1ccc2c(o1)/C(=C/C=C(Cl)Cl)CCC2
    -23%	10	?	-2%
O=C1NCCOC(=O)[C@H](Cc2ccc(F)cc2)CC/C=C/C[C@@H]1CC(=O)N(CCO)Cc1ccccc1
    7%	.	-0.7%	.
COc1cc(/C=C/C(=O)c2ccccc2O)cc(OC)c1OC
    -10%	5	0.9%	-7%
CCCCC1CC(C)(C(=O)CSc2nc3ccccc3s2)OC1=O (stereo unspecified)
    7%	3	3.7%	-7%
CC1=C(C(=O)NCc2ccc3c(c2)OCO3)C2(CCC(C)CC2)OC1=O (stereo unspecified)
    18%	5	3.9%	-9%

These rows are one share of the data; count on the stated rates, not on these rows.
